# Source: PubChem (Southern Research Institute)
# Mtb growth: Mycobacterium tuberculosis H37Rv growth inhibition, cell based, confirmatory dose response (AID 1949); most inactive calls were filed without a number and no value below 0 was filed; inhibition, % at 10 µg/mL; hits with a dose series show IC50 in µg/mL; hit rate 1.6% among 100,000;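 active means confirmed in a dose series; inconclusive means about 50% or more but not retested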;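 further: bacteria grown 7 days with compound before Alamar blue readout; 0% = untreated bacteria and 100% = reference antibiotic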
# * hit, by the source's call; i = inactive; ? = inconclusive.
SMILES,Mtb growth
COc1cc(CO)c(Br)cc1OCCc1ccccc1,1%
CC1CCN(C(=O)C2C3C=CC(C3)C2C(=O)O)CC1 (stereo not given),i
COc1cc2c(cc1OC)CC1(CCCC1)N=C2,i
O=C(Nc1ccccc1-c1nc2ccccc2[nH]1)c1ccccc1I,4%
O=C(NCCOc1cccc2ccccc12)C1CCCN1S(=O)(=O)c1ccc2ccccc2c1 (stereo not given),4%
Nc1nnc(SCC(=O)Nc2ccc(Br)cc2)s1,i
CCOc1ccccc1N(CC(=O)N1CCCC1)S(=O)(=O)c1ccc(Cl)cc1,0%
CCOC(=O)N1CCN(C(=O)CN(c2cccc(F)c2)S(C)(=O)=O)CC1,i
CCc1ccc(NC(=O)CSc2nc(-c3ccccc3)cc(=O)[nH]2)cc1,i
CCOC(=O)c1c(NC(=O)COc2cc(C)ccc2C)sc2c1CCC2,i
COc1ccc(CSc2nnc(-c3cccnc3)n2-c2ccccc2)cc1Br,i
O=C(COc1ccc(CO)cc1)Nc1ccccc1,i
O=[N+]([O-])c1cccc(C(=S)N2CCN(c3ccccc3F)CC2)c1,i
COc1ccc(NC(=S)Nc2ccc(N(C)C(C)=O)cc2)cc1,i
CCOc1ccc(C(=O)Nc2cccc(C)n2)cc1OCC,i
O=S(=O)(NCc1ccc2c(c1)OCO2)c1ccc2oc3ccccc3c2c1,i
COc1ccccc1C1CC(=O)Nc2cc3c(cc21)OCCO3 (stereo not given),i
CCN(CC)C(=O)c1sc(NC(=O)C2(C)CC2(Cl)Cl)c(C#N)c1C (stereo not given),i
Cc1c(C(=O)Nc2nc(C(C)(C)C)cs2)oc2ccccc12,i
c1ccc(COc2ccc(OCCCN3CCCC3)cc2)cc1,i
CCOC(=O)c1cnc2c(C)c(Cl)ccc2c1NCC(C)O (stereo not given),i
Cc1ccc(NS(=O)(=O)c2ccc(Cl)c(C(=O)Nc3cccc(C(=O)O)c3)c2)cc1,i
S=c1[nH]nc(-c2cccnc2)n1-c1cccc2ccccc12,i
Cc1ccc(S(=O)(=O)N2CCN(C3CCC(C)CC3)CC2)cc1 (stereo not given),i
CC(=O)N/C(=C\c1ccc(F)cc1)C(=O)N1CCCC1C(=O)O (stereo not given),3%

# As a short view, 18 of the compounds above.
SMILES,Mtb growth
CCOC(=O)N1CCN(C(=O)CN(c2cccc(F)c2)S(C)(=O)=O)CC1,i
CCc1ccc(NC(=O)CSc2nc(-c3ccccc3)cc(=O)[nH]2)cc1,i
CCOC(=O)c1c(NC(=O)COc2cc(C)ccc2C)sc2c1CCC2,i
COc1ccc(CSc2nnc(-c3cccnc3)n2-c2ccccc2)cc1Br,i
O=C(COc1ccc(CO)cc1)Nc1ccccc1,i
O=[N+]([O-])c1cccc(C(=S)N2CCN(c3ccccc3F)CC2)c1,i
COc1ccc(NC(=S)Nc2ccc(N(C)C(C)=O)cc2)cc1,i
CCOc1ccc(C(=O)Nc2cccc(C)n2)cc1OCC,i
O=S(=O)(NCc1ccc2c(c1)OCO2)c1ccc2oc3ccccc3c2c1,i
COc1ccccc1C1CC(=O)Nc2cc3c(cc21)OCCO3 (stereo not given),i
CCN(CC)C(=O)c1sc(NC(=O)C2(C)CC2(Cl)Cl)c(C#N)c1C (stereo not given),i
Cc1c(C(=O)Nc2nc(C(C)(C)C)cs2)oc2ccccc12,i
c1ccc(COc2ccc(OCCCN3CCCC3)cc2)cc1,i
CCOC(=O)c1cnc2c(C)c(Cl)ccc2c1NCC(C)O (stereo not given),i
Cc1ccc(NS(=O)(=O)c2ccc(Cl)c(C(=O)Nc3cccc(C(=O)O)c3)c2)cc1,i
S=c1[nH]nc(-c2cccnc2)n1-c1cccc2ccccc12,i
Cc1ccc(S(=O)(=O)N2CCN(C3CCC(C)CC3)CC2)cc1 (stereo not given),i
CC(=O)N/C(=C\c1ccc(F)cc1)C(=O)N1CCCC1C(=O)O (stereo not given),3%

# Other entries.
SMILES,Mtb growth
Cc1ccc(NC(=O)COc2cc(C)cc3oc(=O)c(C)c(C)c23)cc1,i
CC(=O)c1cccc(NS(=O)(=O)c2ccc(C)c([N+](=O)[O-])c2)c1,0%
Cc1ccc2nc(-c3ccccc3)c(C)c(C(=O)OCC(=O)c3ccccc3)c2c1,i
COc1ccc(S(=O)(=O)Nc2cccc(NS(=O)(=O)c3ccc(OC)cc3)c2)cc1,i
O=C(C1=C(O)C(=O)N(Cc2ccco2)C1c1ccccc1)c1cccs1 (stereo not given),0%
Cc1cccc(C(C)(C)C)c1OCCCCN1CCCC1,i
Cc1cc(C)cc(OCC(=O)Nc2ccc(S(=O)(=O)N(C)C)cc2)c1,0%
CCOC(=O)C(C)Oc1noc2nc(-c3ccccc3)ccc12 (stereo not given),3.9µg/mL*
O=c1c2ccccc2nnn1Cc1ccccc1,i
CCC(C)NC(=O)C(=O)Nc1ccccc1F (stereo not given),i
CCn1c(NNC(=O)c2cccnc2)nc2ccccc21,0%
CCOc1ccccc1NC(=O)C1CCC(=O)N1S(=O)(=O)c1ccc(C)cc1 (stereo not given),i
CCCc1cc(=O)[nH]c(SCC(=O)N2CCN(c3ccc(F)cc3)CC2)n1,i
CC1(C)CC(=O)c2cnn(-c3nc4ccccc4[nH]3)c2C1,3%
Cc1ccc(-c2nc3ccccc3nc2-c2ccccc2)cc1,13%
CC(=O)c1ccc(NC(=S)Nc2ccc(S(=O)(=O)Nc3ccccc3C)cc2)cc1,i
COc1ccccc1OC(=O)COc1ccc([N+](=O)[O-])cc1,i
O=C(NC1CCCCC1)c1cc2cc(Br)ccc2oc1=O,i
CCc1ccc(-c2csc(NC(=O)c3ccccc3OC)n2)cc1,i
CCOC(=O)c1ccc(OCCOc2cccc(C)c2)cc1,i
CC(=O)N(CCN(C(C)=O)c1cccc(C)c1)c1cccc(C)c1,i
COc1ccc(N(CC(N)=O)S(=O)(=O)c2ccc(C)cc2)c(OC)c1,i
CCOC(=O)c1c(NC(=O)c2nc3ncccn3n2)sc2c1CCC(C)C2 (stereo not given),i
S=C(Nc1ccc(Cl)cc1Cl)N1CCN(C/C=C/c2ccccc2)CC1,i
O=C(Nc1cc(Cl)ccc1O)c1ccc2c(c1)C(=O)N(Cc1cccnc1)C2=O,i

# Carrying on.
SMILES,Mtb growth
O=C(NCCC1CCCC1)C(=O)NC1CC1,i
C=CCOc1ccc2ccccc2c1CNCC1CCCO1 (stereo not given),i
Cc1ccc(Nc2nc(N)nc(C(F)(F)F)n2)c(C)c1,i
O=C(NC(C(=O)NC1=NCCS1)C12CC3CC(CC(C3)C1)C2)C1CCCCC1 (stereo not given),8%
COc1ccc(-c2noc(-c3ccc([N+](=O)[O-])c(C)c3)n2)cc1OC,i
Cc1ccc(S(=O)(=O)N2CCc3ccccc32)cc1C(N)=O,i
COc1ccc(NC(=O)NCCc2ccc(Cl)cc2)cc1OC,i
CC(C)C(NC(=O)c1ccccc1)C(=O)NCc1cccnc1 (stereo not given),i
CCOc1ccc2nc(SCC(=O)Nc3cccc(C)c3C)sc2c1,13%
COC(=O)c1ccc(C)c(NC(=S)NCc2ccc(Cl)cc2)c1,i
COCCNC(=S)NC(C)(C)CC(C)(C)C,i
Cc1cc(NC(=S)NC(=O)c2ccc(Cl)c(Cl)c2)ccc1NC(=O)c1ccccc1,i
COC(=O)c1c(NC(=S)Nc2ccc(OCc3ccccc3)cc2)sc(C(=O)N(C)C)c1C,i
CC(C)(C)NC(=O)C1CC(=O)OC12CCOC(C)(C)C2 (stereo not given),i
N#C/C(=C/c1ccco1)c1ccc(C#N)cc1,i
Cn1nnc2cc(NC(=O)Oc3ccc(C(C)(C)C)cc3)ccc21,i
S=C(c1cn(CCOc2ccccc2Cl)c2ccc(Br)cc12)N1CCOCC1,5%
COC(=O)c1ccccc1NC(=S)NC(=O)c1ccc(C)cc1Cl,1%
COc1ccc(NC(=O)CSc2nnc(-c3cccnc3)o2)cc1,i
Cc1ccc(N2CCN(S(=O)(=O)c3ccc(C)c(C)c3)CC2)c(C)c1,i
Cc1ccc(C)c(NC(=O)CN(c2ccc3c(c2)OCO3)S(C)(=O)=O)c1,i
CCOc1ccc(C(=O)Nc2nc(-c3ccc(Cl)cc3)cs2)cc1Cl,i
O=C(c1ccc(CN2CCc3ccccc3C2)cc1)N1CCOCC1,i
Cc1cc([N+](=O)[O-])ccc1NC(=O)c1csc(C)c1C,i
O=c1c2ccccc2c2nc3ccc4c(=O)c5ccccc5c5nc6ccc1c2c6c3c45,i

# New compounds follow:
SMILES,Mtb growth
CCOC(=O)c1cc(C)sc1NC(=O)c1cccc(Br)c1,i
Cc1occc1C(=O)N1CCC2(CC1)OCCO2,i
COc1cccc(C(=O)N2CCC(N3CC(C)OC(C)C3)CC2)c1 (stereo not given),i
CSc1nc2cc(S(=O)(=O)N3CCOCC3)ccc2s1,i
O=C(CSc1ccccc1)Nc1cccc(O)c1,4%
Cc1ccc(C(=O)Nc2ccc(Br)c(C(F)(F)F)c2)cc1,13%
COCCCn1c(=NC(=O)c2ccco2)c(C#N)cc2c(=O)n3ccccc3nc21,i
Cc1ccc(C(=O)N(C)c2ccccc2)cc1Br,2%
COc1cc(C)c(S(=O)(=O)N2CCN(c3ccc(C)c(Cl)c3)CC2)cc1C,1%
CCOC(=O)C1=C(C)NC(C)=C(C(=O)OCC)C1,i
CC(NS(=O)(=O)c1ccc(Br)cc1)C(=O)Nc1cccc([N+](=O)[O-])c1 (stereo not given),i
COc1nc(-c2cccs2)cc(-c2ccc(C)cc2)c1C#N,i
CC(C)C(=O)Nc1cccc(C(=O)Nc2ccc(F)c(F)c2)c1,4%
COc1cc(C(=O)Oc2ccc(C(=O)Nc3ccc(C)cc3)cc2)cc(OC)c1OC,1%
CCCCc1ccc2nc(NC(=O)Cc3ccccc3)sc2c1,3%
O=C(O)c1cc(NC(=O)C(F)(F)F)cc(NC(=O)C(F)(F)F)c1,i
CC(C)Cn1c(-c2ccc(C(C)(C)C)cc2)n[nH]c1=S,16%
CC12CCC(C(=O)NCC3CCCO3)(OC1=O)C2(C)C (stereo not given),i
O=C(CSc1nnc2ccc3ccccc3n12)Nc1ccc(F)c(Cl)c1,i
CCOc1ccc(-c2nn(-c3ccccc3)cc2C2C(C(=O)OC)=C(C)NC(C)=C2C(=O)OC)cc1,?
Cc1c(C)c(C)c2c(CC(C)N)c[nH]c2c1C (stereo not given),22%
O=C(Nc1ccc(-c2nc3cc(NC(=O)c4ccco4)ccc3o2)cc1)c1ccco1,i
CC(C)CN(Cc1c(O)ccc2c(=O)c(-c3ccccc3Cl)coc12)CC(C)C,i
CCOC(=O)C1CCN(C(=O)CN(c2ccc(OC)cc2OC)S(=O)(=O)c2ccccc2)CC1,i
Cc1c(NC(=S)Nc2ccc(Cl)cc2)c(=O)n(-c2ccccc2)n1C,i

# Random excerpt: 2 compounds from above.
SMILES,Mtb growth
Cc1c(C)c(C)c2c(CC(C)N)c[nH]c2c1C (stereo not given),22%
Cc1ccc(C(=O)N(C)c2ccccc2)cc1Br,2%

# Additional results follow:
SMILES,Mtb growth
Cc1ccc(C(=O)N2CCC(C(=O)Nc3ccc(C)c(C)c3)CC2)cc1,i
c1ccc(OCCCN2CCCC2)cc1,i
CC(C)c1ccc(NC(=O)CN2C(=O)c3ccccc3S2(=O)=O)cc1,i
CS(=O)(=O)N(CC(=O)N1CCN(c2cccc(Cl)c2)CC1)C1CCCCC1,2%
COc1ccc(N(CC(=O)Nc2ccccc2C(=O)NCCc2ccccc2)S(C)(=O)=O)cc1OC,i
CC(Sc1ccccc1)C(=O)NC1CC2CCC1C2 (stereo not given),i
COc1ccc(-c2nc(-c3ccncc3)no2)cc1,1%
O=C(COc1cc(Cl)c(Cl)cc1Cl)Nc1ccc2c(c1)OCCO2,i
Cc1cc(C)nc(N/C(=N\S(=O)(=O)Cc2ccccc2)Nc2ccc(F)c(Cl)c2)n1,i
Cc1c(Cl)cccc1NC(=O)c1ccc2c(c1)OCO2,i
O=S1(=O)N=C(Nc2ccc(N3CCOCC3)c(Cl)c2)c2ccccc21,i
CCCCc1ccc(NC(=O)COc2ccc(C(=O)Nc3ccccc3OC)cc2)cc1,i
COc1cc(CO)cc(Br)c1OCc1ccc(C(=O)O)cc1,i
O=C(O)c1cc2nc(-c3ccco3)cc(C(F)(F)F)n2n1,i
Cc1ccc(C2CC(c3ccccc3C)n3ncnc3N2)cc1 (stereo not given),1%
COc1ccc([N+](=O)[O-])cc1NC(=O)CCCOc1ccc(C)cc1,i
CCCCn1c(-c2cccnc2)n[nH]c1=S,i
CS(=O)(=O)N(CC(=O)Nc1ccccc1C(=O)N1CCCC1)c1ccccc1Cl,i
CCOC(=O)C(=O)Nc1ccccc1C(=O)NC(C)C,i
CN(CC(=O)Nc1ccccc1F)S(=O)(=O)c1ccc2ccccc2c1,5%
Cc1cccc(C)c1NC(=O)C1(N(Cc2ccco2)C(=O)c2ccccn2)CCCC1,i
CCOC(=O)N1CCN(C(=O)C2CCN(C(=O)c3cc(OC)cc(OC)c3)CC2)CC1,1%
Cc1ccc2c(c1)C1OCCC1C1N2C(=O)C2C(C(=O)O)C3C=CC21O3 (stereo not given),i
COC(=O)c1cc(OC)c(OC)cc1NC(=O)c1ccccc1C,i
Cc1ccc2c(Cl)c(C(=O)NCCC3=CCCCC3)sc2c1,i

# Next entries.
SMILES,Mtb growth
CCCOc1ccc2oc(-c3ccc(OC)cc3)cc(=O)c2c1,17%
COc1ccc(-c2cn3c4c(sc3n2)CCCC4)cc1,i
c1csc(-c2nn3c(Cn4cnc5ccccc54)nnc3s2)c1,i
CCN1CCN(C(=S)c2ccc(OC)cc2)CC1,i
CCC(C)NCCCOc1ccc(C)cc1Cl (stereo not given),i
Cc1csc(NC(=O)CSc2nc3ccccc3[nH]2)n1,i
CC1(C)C(=O)OC(c2ccc(Cl)cc2)C2(CCCCC2)C1=O (stereo not given),i
Cc1nn(CC(O)Cn2cnc3c2c(=O)n(C)c(=O)n3C)c(C)c1Br (stereo not given),i
COc1ccc(OCc2nn3c(-c4ccc(C(C)(C)C)cc4)nnc3s2)cc1,i
CC(=O)N(C)c1ccc(NC(=O)c2ccncc2)cc1,i
COC(=O)c1ccc(COc2ccccc2OC)o1,7%
Cc1cc2nc(-c3cccs3)cc(C(F)(F)F)n2n1,i
Cc1cc(C(=O)NCCCN2CCCC2=O)sc1-c1ccccc1,i
CCc1nc(C)cn1S(=O)(=O)c1ccc(C)c(C)c1C,1%

# An excerpt, so the mix of outcomes need not match the whole.
